# IMPase inh: qHTS Assay for Identifying the Cell-Membrane Permeable IMPase Inhibitors; 120,000 tested, under 10 active; CHO-M1 cells, IP1 accumulation, HTRF TR-FRET ratio; inhibition (IP1 accumulation), % at 46.1 µM; Inositol monophosphatase 1 (Rattus norvegicus), P97697; active = well fitted curve in the direction sought with a large enough effect in the signal ratio, not every such curve was filed as active; inconclusive = small, poorly fitted or top-dose-only effect, or a change in a side signal; inactive = no such curve, though single readings can be large or run the other way; the % refers to the signal ratio;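 also: cells stimulated with carbachol in lithium chloride buffer; plate controls were DMSO basal wells for no effect and reference inhibitor wells for full effect; higher means more IMPase inhibition seen as more IP1 and lower FRET ratio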
# Target sequence (P97697 whole entry, looked up): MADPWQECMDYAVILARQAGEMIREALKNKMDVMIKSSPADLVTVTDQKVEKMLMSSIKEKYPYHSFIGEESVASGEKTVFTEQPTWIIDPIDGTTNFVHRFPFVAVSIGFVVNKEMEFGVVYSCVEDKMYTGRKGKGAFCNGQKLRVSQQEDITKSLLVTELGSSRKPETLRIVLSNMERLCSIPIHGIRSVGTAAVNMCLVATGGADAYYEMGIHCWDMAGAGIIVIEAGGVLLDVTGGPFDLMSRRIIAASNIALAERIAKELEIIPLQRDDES
#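 CHO-M1 cells (CHO stably expressing M1 receptor), compound up to 46 uM final, stimulated with carbachol (50 uM as added) in buffer with 50mM LiCl, pH 7.4, 30 min at 37C. Cytosolic IP1 read by TR-FRET; AC50 from Hill fits.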
# ALOX15B inhib: qHTS Assay for Inhibitors of 15-hLO-2 (15-human lipoxygenase 2) | Polyunsaturated fatty acid lipoxygenase ALOX15B (Homo sapiens), O15296 | purified 15hLO-2, xylenol orange hydroperoxide absorbance | Potency, µM (doses to about 57.1 µM), for the others: top-dose activity change, negative = inhibition, hits mostly inhibitors | hit rate 0.56% among 110,000; also: potency is read from the fitted curve at half-maximal effect; nearly all actives have a fitted effect of over 60% in size; many of its hits are not listed in these tables
#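 Screening format was qHTS against 50 nM purified 15hLO-2 in Hepes pH 7.5 with detergent. Activity follows hydroperoxide formation from 45 uM arachidonic acid, measured as 573:405 nm absorbance ratio of the ferric-xylenol orange complex.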
# ALOX12 inhib: qHTS Assay for Inhibitors of 12-hLO (12-human lipoxygenase) | Polyunsaturated fatty acid lipoxygenase ALOX12 (Homo sapiens), P18054 | purified 12-hLO, xylenol orange hydroperoxide absorbance | Potency, µM (doses to about 57.1 µM), inactives show at the highest dose activity change, negative = inhibition, usual class: inhibitors | hit rate 0.12% among 150,000 | AID 1452, 2008; also: potency is read from the fitted curve at half-maximal effect; nearly all actives have a fitted effect of over 55% in size; many of its hits are not listed in these tables
#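 Hydroperoxide output read as Fe(III)-xylenol orange absorbance, 573-to-405 nm ratio, after 30 min reaction with 40 uM arachidonic acid. Enzyme: 150 nM purified human 12hLO, 15 min compound preincubation; 25 mM Hepes pH 7.0, room temperature.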
# * marks the source's active call; other numbers are inactive results; ? = inconclusive; / = no result given; & = joins results of further samples; [ ] = remark or other dose. Unless noted, calls follow the shape of the dose curve; as a rule, active = well fitted curve in the direction sought with a large enough effect; inconclusive = small, poorly fitted or top-dose-only effect, or another doubt; inactive = no such curve, though single readings can be large; an effect the other way counts as inactive or inconclusive. Unless noted, % is scaled to controls: 0 for no effect and ±100 for the full control effect. Some of the compounds tested (hit frequency here may not be typical).
IMPase inh	ALOX15B inhib	ALOX12 inhib	SMILES
6.9	?	2.1%	CCN1CCCC1CNC(=O)c1cc(NC(C)=O)c(N(C)C)cc1OC (stereo not given)
-0.7	-16.9%	-26.5%	Cc1cc(C)c2c(-n3cccc3)c(C(=O)NNS(=O)(=O)c3ccc(Cl)cc3)sc2n1
-5.7	-5.2%&5.8%	6.0%&-1.8%&-1.4%&-3.7%	NCCc1cnc[nH]1
-4.5	3.0%	6.6%	CC1=C(C#N)C(NC(=O)C(C)(C)C)(C(F)(F)F)C(=O)N1 (stereo not given)
/	0.0%	-3.0%	C[C@@H](C(=O)Nc1ccc2ccccc2c1)[C@H]1C[C@]1(C)[C@H](NC(=O)c1ccccc1)c1ccccc1
/	-3.5%	0.1%&-1.4%	C[C@@H](C(=O)Nc1ccc2ccccc2c1)[C@@H]1C[C@@]1(C)[C@@H](NC(=O)c1ccccc1)c1ccccc1
12.5	/	3.2%	Cc1c(NC(=O)/C(=C\c2ccccc2)NC(=O)c2ccccc2)c(=O)n(-c2ccccc2)n1C
0.5	9.0%	-0.4%	Cc1nn(CC(=O)N2CCOCC2)c(C)c1[N+](=O)[O-]
4.8&6.2	40.7%&24.0%[activator]	-10.0%&-25.4%	O=C(Cc1cc(=O)[nH][nH]1)N/N=C/C(Cl)=C/c1ccccc1
9.2	-5.4%	-12.0%	CCc1ccc(OCCNC(=O)c2cc(SC)ccc2Cl)cc1
10.0	3.0%	6.1%	CCOC(=O)C1CCCN(C(=O)C2CCN(S(=O)(=O)CC)CC2)C1 (stereo not given)
/	-6.8%	-2.3%&3.0%	C[C@@H](C(=O)Nc1ccc2ccccc2c1)[C@H]1C[C@]1(C)[C@H](NS(=O)(=O)c1ccccc1)c1ccccc1
-5.9	-2.0%	4.3%	CN(C)/C=C(\C#N)C(=O)c1cccnc1Oc1ccc(F)cc1F
-7.3	12.7%	1.3%	O=S(=O)(Cc1ccc(Cl)cc1)c1ccccc1-c1nnc(-c2ccc(Cl)cc2)o1
-4.7	-2.3%	2.3%	S=C(Nc1ccc(Cl)cc1Cl)NC1CCCCC1

# Ordered by heavy-atom count (ascending): part of the list above.
IMPase inh	ALOX15B inhib	ALOX12 inhib	SMILES
-4.7	-2.3%	2.3%	S=C(Nc1ccc(Cl)cc1Cl)NC1CCCCC1
-5.9	-2.0%	4.3%	CN(C)/C=C(\C#N)C(=O)c1cccnc1Oc1ccc(F)cc1F
6.9	?	2.1%	CCN1CCCC1CNC(=O)c1cc(NC(C)=O)c(N(C)C)cc1OC (stereo not given)
12.5	/	3.2%	Cc1c(NC(=O)/C(=C\c2ccccc2)NC(=O)c2ccccc2)c(=O)n(-c2ccccc2)n1C
/	0.0%	-3.0%	C[C@@H](C(=O)Nc1ccc2ccccc2c1)[C@H]1C[C@]1(C)[C@H](NC(=O)c1ccccc1)c1ccccc1

# Returning to the listing with the five entries that preceded the break.
IMPase inh	ALOX15B inhib	ALOX12 inhib	SMILES
10.0	3.0%	6.1%	CCOC(=O)C1CCCN(C(=O)C2CCN(S(=O)(=O)CC)CC2)C1 (stereo not given)
/	-6.8%	-2.3%&3.0%	C[C@@H](C(=O)Nc1ccc2ccccc2c1)[C@H]1C[C@]1(C)[C@H](NS(=O)(=O)c1ccccc1)c1ccccc1
-5.9	-2.0%	4.3%	CN(C)/C=C(\C#N)C(=O)c1cccnc1Oc1ccc(F)cc1F
-7.3	12.7%	1.3%	O=S(=O)(Cc1ccc(Cl)cc1)c1ccccc1-c1nnc(-c2ccc(Cl)cc2)o1
-4.7	-2.3%	2.3%	S=C(Nc1ccc(Cl)cc1Cl)NC1CCCCC1
4.9	28.9%	-2.3%	Cc1ccc(C)n1CCN1CCN(CC(=O)Nc2ccc(S(N)(=O)=O)cc2)CC1
/	/	-5.5%	CC(=O)c1cn(S(=O)(=O)c2ccccc2)c2ccccc12
4.7	5.9%	-1.9%	COc1ccc2c(C)cc(SCC(=O)c3ccc4c(c3)OCO4)nc2c1
-6.0	-7.8%	5.3%	CC(=O)NC(O)C(=O)c1ccco1 (stereo not given)
6.6	-22.7%&-12.2%&-25.3%	-6.4%&1.0%&-2.3%&-4.7%	NCCc1ccc(O)c(O)c1

# Grouped by structure: the compounds so far containing an aryl thioether with sulfur outside any ring (2)
IMPase inh	ALOX15B inhib	ALOX12 inhib	SMILES
9.2	-5.4%	-12.0%	CCc1ccc(OCCNC(=O)c2cc(SC)ccc2Cl)cc1
4.7	5.9%	-1.9%	COc1ccc2c(C)cc(SCC(=O)c3ccc4c(c3)OCO4)nc2c1
